Compound activity deposited in PubChem by National Center for Advancing Translational Sciences (NCATS).
YjeE inh: inhibitors of E. coli YjeE (TsaE); purified YjeE, fluorescence polarisation of a bound ADP probe; Potency, µM; 0.05% of 71,000 active; active = well fitted falling curve; inconclusive = weaker or top-dose-only fall, or a rising curve; inactive = flat or poorly fitted curve;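 also: top concentration of the series not given in the record; excess ADP was the control for the full effect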
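Fluorescence polarization of a BODIPY Texas Red–ADP probe (2 uM) bound to purified YjeE (10 uM) was read after 15 min room-temperature incubation with compounds. Loss of polarization marks inhibitors; ADP serves as titrated control.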
PK Bst: pyruvate kinase (B. stearothermophilus) modulation. partly purified Bacillus stearothermophilus pyruvate kinase, luminescence ATP production; ribose 5-phosphate activator present at AC10. Potency, µM. 1.2% of 51,000 active. AID 361; in the data active means potency below about 11 µM; inconclusive means mostly about 12 µM to 25 µM; inactive means weaker than that;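 the screen sought inhibitors and activators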;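 also: potency is read from the fitted curve at half-maximal effect; scaled between full activation by ribose 5 phosphate and full inhibition by luteolin; about four in five hits inhibit and the cells do not say which; series up to 57 µM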
Numbers without * were called inactive; i = inactive; ? = inconclusive; / = no result given. The list is partial; count on the stated rates, not on these rows.

SMILES | YjeE inh | PK Bst
Cn1c(=O)[nH]c(=O)c2c1nc(Br)n2CCCSc1nc2ccccc2o1 | i | >57
Cc1cc(C)n(-c2ccc(F)cc2)c(=O)c1C(=O)O | i | >57
Oc1ccc(Br)cc1/C=N/n1cnc2ccccc21 | i | /
Cc1ccc(-c2nc(C#N)c(NCCN3CCCCC3)o2)cc1 | i | /
O=C(O)CCC(O)=C1S(=O)(=O)OCCOS1(=O)=O | i | /
CCOc1cc(CN2CCCCC2)ccc1OC | i | >57
CCOC(=O)Cn1c(=O)oc2cc(S(=O)(=O)NCC3CCCO3)ccc21 (stereo not drawn) | i | /
Cc1nc2ccc(S(=O)(=O)NC(C(=O)N3CCC(C)CC3)C(C)C)cc2s1 (stereo not drawn) | i | /
CCCCOC(=O)n1c(=O)oc2ccccc21 | i | >57
CCOc1ccccc1Nc1nc(N)nc(CSc2nccc(C)n2)n1 | i | >57
COc1cc(C(=O)CSc2nncn2C)cc(OC)c1OC | i | >57
COc1ccc(CNC(=O)c2cccc3c2C(=O)N(Cc2cccnc2)C3)cc1 | i | >57
Cc1ccc(-n2c3c(cc(C(=O)N4CCN(C)CC4)c2=O)C(=O)CC(C)(C)C3)cc1 | i | >57
Cc1cc2oc(=O)cc(CN3CCCCC3)c2cc1C(C)C | i | >57
Cc1noc(C)c1-c1nc(NCc2ccccc2)c2ccccc2n1 | i | /
O=C(Nc1nc2ccccc2n1Cc1ccc(Cl)cc1)c1ccco1 | i | /
Cc1ccc(NC(=O)c2ccco2)cc1C | i | /
Cc1cc(-c2cccnc2)c(C#N)c(SCC#N)n1 | i | >57
CCOC(=O)c1ccc(NC(=O)Cn2cc3c(n2)CCC(C)C3)cc1 (stereo not drawn) | i | /
COc1cccc(CC(NC(C)=O)C(=O)NC2CCN(c3c4c(nc5ncnn35)CCC4)CC2)c1 (stereo not drawn) | i | >57
O=C(CN(C(=O)c1ccco1)c1cccc(F)c1)NCc1ccc(F)cc1 | i | >57
Cc1ccc2nc(CSc3nnc(-c4ccco4)n3-c3ccccc3)cc(=O)n2c1 | i | >57
O=C(NCc1ccc(Cl)c(Cl)c1)c1cccnc1 | i | /
O=C(NCCCN1CCOCC1)c1ccc(CS(=O)(=O)c2c(Cl)cccc2Cl)o1 | i | /
CC(C)CCNC(=O)Cn1c(=O)oc2cc(S(=O)(=O)N3CCc4ccccc43)ccc21 | i | /
CCc1nc(SCC(=O)N2CCCC2)c2ccccc2n1 | i | >57
CCNS(=O)(=O)c1ccc(NS(=O)(=O)c2cc(C)ccc2C)cc1 | i | >57
COc1ccc(OC)c(-c2nc(C)sc2CC(=O)O)c1 | i | >57
COc1ccc(N=c2oc3cc(O)ccc3cc2C(=O)NCC2CCCO2)c(OC)c1 (stereo not drawn) | i | >57
COC(=O)c1ccc(NC(=O)C23CCC(C)(C(=O)O2)C3(C)C)cc1 (stereo not drawn) | i | /
O=C(OCc1cccs1)c1ccccc1NS(=O)(=O)c1ccc2c(c1)OCCO2 | i | >57
CN1CCCC(OC(=O)c2ccc3c(c2)OCCO3)C1 (stereo not drawn) | i | >57
CCOC(=O)c1snc(-c2ccc(F)cc2)c1N | i | >57
Cc1ccc(C2=Nc3ccccc3NC(C)(c3ccc(C)o3)C2)o1 (stereo not drawn) | i | >57
CCN(c1ccccc1)S(=O)(=O)c1cnc[nH]1 | i | >57
OCCN1CCN(c2nc(-c3ccccc3)c3cc(Cl)ccc3n2)CC1 | i | >57
CCSc1oc(-c2ccco2)nc1S(=O)(=O)c1ccc(F)cc1 | i | >57
CC(C)N(Cc1nc(-c2ccccc2)no1)C(=O)c1ccc2c(c1)OCO2 | i | >57
CC1(C(=O)O)CCC(C(=O)N2CCOCC2)C1(C)C (stereo not drawn) | i | >57
O=C(c1coc(=O)c(Br)c1)N1CCCc2ccccc21 | / | >11
O=C(CSc1nnc(-c2ccco2)o1)c1ccccc1 | i | >57
COc1ccc(C(=O)/C=C\N2CCOCC2)cc1 | i | /
Cc1ccc2cc(COC(=O)c3ccncc3)c(=O)[nH]c2c1 | i | /
CCc1ccccc1S(=O)(=O)Cc1ccc(C(=O)NCC2CCCO2)o1 (stereo not drawn) | i | >57
CC(=O)Nc1cc2c(cc1NC(=O)c1cnccn1)OCCO2 | i | >57
Cc1ccc(-n2ncc3c2ncn2c(-c4ccncc4)nnc32)cc1 | i | >57
COCCOC(=O)c1c(C)n(C)c2ccc(OC(=O)N3CCOCC3)cc12 | i | >57
COc1ccc(C2NC3=C(CCC3)C3(C#N)C(OC)(OC)N=C(N)C23C#N)cc1 (stereo not drawn) | / | >11
CC1CCN(C(=O)C2Cc3ccccc3CN2S(=O)(=O)c2ccc(F)cc2)CC1 (stereo not drawn) | i | >57
CSc1nnc(Cn2c(=O)sc3ccccc32)n1-c1ccccc1C | i | /
O=C(CN1CCN(C2CCCCC2)CC1)c1ccc2cc[nH]c2c1 | i | /
O=C(NCC1CCCO1)c1cccnc1Nc1ccccc1F (stereo not drawn) | i | >57
COC(=O)C(CCSC)NC(=O)C(NC(=O)C1CCC(C)CC1)C(C)C (stereo not drawn) | i | >57
Nc1nc(-c2ccccc2)nc(-c2ccccc2O)n1 | i | ?
Cc1cc(NC(=O)COC(=O)COc2ccc3c(c2)CCC3)no1 | i | >57
COc1cccc(-c2ccc3ncnc(NCc4cccs4)c3c2)c1 | i | /
CC(O)c1nc2ccc(Cc3ccc4nc(C(C)O)[nH]c4c3)cc2[nH]1 (stereo not drawn) | i | >57
O=c1oc(-c2ccco2)nc2c1cnn2-c1ccccc1 | i | >57
Cc1nc2cc(-c3cccc(F)c3)nn2c(C)c1CCC(=O)N1CCN(c2ccccn2)CC1 | i | /
CC(=O)NC1CCC(C(=O)O)(c2ccccc2)C1 (stereo not drawn) | i | >57
(more compounds)
SMILES | YjeE inh | PK Bst
Cc1nnc(SCC(=O)NC2CC2)n1CCc1ccccc1 | i | >57
CCCNC(=O)c1ccc2c(c1)ncn2-c1ccccc1OC | i | >57
CC(C)OCC(O)CN1CCN(CC(O)COc2ccc3c(c2)OCO3)CC1 (stereo not drawn) | i | >57
O=C(CSc1nc(N2CCCCC2)nc(N2CCCCC2)n1)N1CCc2ccccc21 | i | >57
CC(=O)N1CCN(c2ccc(NCc3ccc(C)cc3)cc2)CC1 | i | >57
CCc1nnc(NC(=O)CSc2nnc(-c3ccoc3C)n2-c2ccccc2)s1 | i | >57
CCOC(=O)c1cc2sccc2n1CC(=O)N1CCc2ccccc21 | i | >57
CCOC(=O)c1cnc(SCc2nc(N)nc(Nc3ccc(C)cc3)n2)nc1N | i | >57
Cc1cc(Nc2ccc(F)cc2Cl)n2ncnc2n1 | i | /
CCn1cc(C(=O)NC2CCc3ccccc32)c(=O)c2ccc(C)nc21 (stereo not drawn) | i | >57
O=C(Cn1nc(-c2ccccc2)c2ccccc2c1=O)NCC1CCCO1 (stereo not drawn) | i | >57
O=C(Nc1ccccc1)c1ccc(NCc2cccnc2)c(S(=O)(=O)N2CCOCC2)c1 | i | >57
COc1ccc2oc(=O)c(C(=O)N3CCN(C45CC6CC(CC(C6)C4)C5)CC3)cc2c1 | i | >57
CCCc1cc(=O)n2[nH]c(SCc3ccccc3)nc2n1 | i | >57
Cc1cc(C(=O)COC(=O)c2cccs2)c(C)n1-c1c(C)n(C)n(-c2ccccc2)c1=O | i | >57
CCOc1ccc(NC(=O)c2oc3ccccc3c2NC(=O)CC)cc1 | i | 5.4*
Nc1nnc(SCc2ccc3c(c2)OCO3)s1 | i | >57
Cc1ccc(C)c(Cn2cnc3c(cnn3C(C)(C)C)c2=O)c1 | i | ?
CC(=O)Nc1ccc(C2NC(=O)c3ccccc3O2)cc1 (stereo not drawn) | i | >57
CCCOc1ccc(N2C(=O)CC(N3CCC(c4nncn4CC)CC3)C2=O)cc1 (stereo not drawn) | i | >57

Brought forward from above: 6 compounds, followed by the next part.
SMILES | YjeE inh | PK Bst
Cc1cc(C(=O)COC(=O)c2cccs2)c(C)n1-c1c(C)n(C)n(-c2ccccc2)c1=O | i | >57
CCOc1ccc(NC(=O)c2oc3ccccc3c2NC(=O)CC)cc1 | i | 5.4*
Nc1nnc(SCc2ccc3c(c2)OCO3)s1 | i | >57
Cc1ccc(C)c(Cn2cnc3c(cnn3C(C)(C)C)c2=O)c1 | i | ?
CC(=O)Nc1ccc(C2NC(=O)c3ccccc3O2)cc1 (stereo not drawn) | i | >57
CCCOc1ccc(N2C(=O)CC(N3CCC(c4nncn4CC)CC3)C2=O)cc1 (stereo not drawn) | i | >57
O=C1c2oc3ccccc3c(=O)c2C(c2cccs2)N1CCCN1CCOCC1 (stereo not drawn) | i | >57
COc1ccc(C)cc1-n1nnnc1SCc1nc2ccccc2s1 | i | /
O=C(CCCN1C(=O)c2ccccc2C1=O)Nc1nncs1 | i | >57
Cc1ccc(C(=O)C2CCNCC2)cc1 | i | >57
CC(C)Sc1nc(N)c2c3c(sc2n1)CN(C)CC3 | i | >57
COc1ccc(S(=O)(=O)N2CCN(c3cccc(C)c3C)CC2)cc1 | i | /
CCOc1ccc(C(=O)OCC(=O)NCc2ccco2)cc1OCC | i | >57
O=C(Nc1ccc2c(c1)ncn2-c1ccccc1)c1ccco1 | i | 10*
O=c1[nH]c2ccc(S(=O)(=O)Nc3ccc(-c4nnc5n4CCCCC5)cc3)cc2o1 | i | >57
Cc1ccnc2nc(C(=O)NC3=NCCS3)nn12 | i | >57
CCN1CCN(C(=O)c2cc3c(=O)n4ccccc4nc3n2Cc2ccccc2)CC1 | i | ?
C=CCN1C(=NC(=O)CCCC(=O)O)SC2CS(=O)(=O)CC21 (stereo not drawn) | i | >57
CCCn1cc(C(CC(=O)O)C(=O)O)c2ccccc21 (stereo not drawn) | i | >57
COc1ccccc1C1/C(=C(/O)c2ccc(C)cc2)C(=O)C(=O)N1CC(C)O (stereo not drawn) | i | >57
O=C(NC1CCS(=O)(=O)C1)OC1CCCCC1 (stereo not drawn) | i | >57
CC1CCCC(C(=O)O)N1C(=O)CCSC(=O)c1ccccc1 (stereo not drawn) | i | >57
Cc1ccc(/C(O)=C2\C(=O)C(=O)N(CCCN(C)C)C2c2ccccn2)cc1 (stereo not drawn) | i | >57
O=C(NNS(=O)(=O)c1ccccc1)c1cccnc1 | i | /
Cc1nn(C)cc1/C=N/n1nnnc1N | / | >26
Cn1nnnc1SCc1ccc(C(=O)Nc2nccs2)cc1 | i | 1*

Reprinted from the results shown for reference:
SMILES | YjeE inh | PK Bst
Cc1nn(C)cc1/C=N/n1nnnc1N | / | >26
Cn1nnnc1SCc1ccc(C(=O)Nc2nccs2)cc1 | i | 1*

Whole records, quoted from the list. Values in the order: YjeE inh, PK Bst
Record of C=CCN1C(=NC(=O)CCCC(=O)O)SC2CS(=O)(=O)CC21 (stereo not drawn) = i, >57
Record of CCN1CCN(C(=O)c2cc3c(=O)n4ccccc4nc3n2Cc2ccccc2)CC1 = i, ?
Record of O=C1c2oc3ccccc3c(=O)c2C(c2cccs2)N1CCCN1CCOCC1 (stereo not drawn) = i, >57
Record of Cc1ccc(C(=O)C2CCNCC2)cc1 = i, >57
Record of CC(C)Sc1nc(N)c2c3c(sc2n1)CN(C)CC3 = i, >57

Going on with the list:
SMILES | YjeE inh | PK Bst
Cc1ccc(S(=O)(=O)NC(C(=O)OCC(=O)NC(=O)c2cccn2C)C(C)C)cc1 (stereo not drawn) | i | >57
COc1ccc(CCNC(=O)COc2ccc(S(=O)(=O)N3CCOCC3)cc2)cc1OC | i | >57
CCCCN(C(=O)CN1C(=O)C2CC=CCC2C1=O)c1c(N)n(CCC)c(=O)[nH]c1=O (stereo not drawn) | i | >57
Cc1cc(C)n2nc(SCC(=O)c3ccc[nH]3)nc2n1 | i | >57
CCOc1cccc2c1OC1(C)CC2NC(=O)N1c1cccc(F)c1 (stereo not drawn) | i | >57
O=c1c(-c2ccc(Cl)cc2)nc2cnc(N3CCNCC3)nc2n1CCc1ccccc1 | i | /
COc1ccc(N2CCn3c2nc2c3c(=O)n(CCc3ccccc3)c(=O)n2C)cc1 | i | >57
CCc1c(C)sc(NC(=O)c2ccc(Br)o2)c1C(=O)OC | i | >57
COc1cccc(-c2nnc(SCC(=O)Nc3cc(C)on3)o2)c1 | i | >57
CC(C)OC(=O)c1c(NC(=O)c2cccs2)sc2c1CCCC2 | i | /
CCCCc1nc2ccccc2n1Cc1nnc2n1-c1ccccc1SC2 | i | >57
Nc1nnc(Cc2ccc(Cl)c(Cl)c2)s1 | / | ?
CCN(CC)c1ccc(NC(=O)CN2C(=O)CC(C)(C)S(=O)(=O)c3ccccc32)c(C)c1 | i | /
Cc1ccc(NC(=O)CSc2nnc(Cc3cccn3C)n2-c2ccc(F)cc2)cc1 | i | /
O=C1C2C3C=CC(C3)C2C(=O)N1c1nccs1 (stereo not drawn) | i | >57
COc1cc([C@H](O)C(=O)O)ccc1O | i | /
C[C@@](O)(CNS(=O)(=O)c1ccccc1)c1ccccc1 | i | /
CC(C)CC1NC(=O)N(CC(=O)c2ccc3c(c2)OCCO3)C1=O (stereo not drawn) | i | >11
CC(C)Cn1c(-c2ccccc2F)n[nH]c1=S | i | >57
CC(=O)NCCNc1nc(-c2ccccc2Cl)nc2ccccc12 | i | /
C=CCNc1oc(-c2ccc(OCC)cc2)nc1C#N | i | 5.3*
C=CCNC(=O)CCCOc1cc(C)ccc1C | i | >57
COCCN(C(=O)c1csnn1)C(C(=O)NC1CCCCC1)c1cccs1 (stereo not drawn) | i | >57
COc1ccc(C2CC(=O)c3c(C)nc(N4CCN(c5ccccc5)CC4)nc3C2)cc1 (stereo not drawn) | i | >57
